# Screening data: PubChem, Center for Chemical Genomics, University of Michigan
# HIV TAR-Tat = HIV-1 TAR-Tat binding disruption. 100,000 compounds, 0.6% hits. z-score (concentration not given with the values). HIV-1 TAR RNA, Tat peptide displacement FRET; stronger effect = higher value;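 also: score is relative to mean and SD of negative controls; some compounds called inactive have numbers as strong as hits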
# CDC25B CDK2 inh = human CDC25B-CDK2/CyclinA binding inhibition; z-score (test concentration not listed); 94,000 compounds, 0.72% hits; AID 1259370; HTRF CDC25B-CDK2/CyclinA binding, anti-His/anti-Flag; stronger effect = higher value;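 also: score is relative to mean and SD of negative controls; strong numbers were not always called active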
# Numbers without * were called inactive; / = not tested or not shown; & = joins results of further samples.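 The calls were made as follows: active = z-score from 3 up in half or more of its runs; inactive = the rest.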 Rows are unselected, and some 0.87% of all compounds hit somewhere here.
# Results follow in this order: CDC25B CDK2 inh, HIV TAR-Tat
Cn1ncc2c(NCc3cccc(Cl)c3)nc(NCCO)nc21
 : /, 1.35
Cc1nn(-c2ccc3nnc(C)n3n2)c2c1C(c1ccc(OCc3ccc(F)cc3)cc1)CC(=O)N2 (configuration not stated)
 : /, 0.54
COCc1cc(C)nc2sc3c(=O)n(-c4cccc(C(=O)OCC(C)C)c4)nnc3c12
 : -0.85, 1.85
Cc1cc(C)c2c(-n3cccc3)nn(CCCC(=O)NC3CCCC3)c2n1
 : /, -0.07
CCOC(=O)C(=CNNC(=O)c1ccc(OC)cc1)C(=O)OCC
 : -1.51, /
C=CCN1C(=N)SC2CS(=O)(=O)CC21 (configuration not stated)
 : -3.39, /
COc1ccc(N2C(=O)C3N=NN(CC(=O)Nc4ccc(OC)c(Cl)c4)C3C2=O)cc1 (configuration not stated)
 : -1.38, -0.04
CN(C(=O)C1CCN(c2ncnc3c2nc2n3CCCCC2)CC1)C1CCCCC1
 : /, 0.01
O=C1OC2C(C(=O)O)Sc3c(sc(=O)n3-c3ccccc3)C2c2cc(Br)ccc21 (configuration not stated)
 : -0.21, -4.26
CCCc1cc(=O)[nH]c(SCc2ccccc2)n1
 : -3.93, 1.41
Cn1c(=O)oc2cc(S(=O)(=O)N3CCC(C(=O)N4CCC(C(N)=O)CC4)CC3)ccc21
 : 0.17, 0.91
O=C(N[C@@H]1C[C@H]2CC[C@@H]1C2)c1ccc(C2SCC(=O)N2CCc2ccccc2)cc1 (some centres not stated)
 : -2.33, 0.77
CC(C)CC(C(=O)N1CCCCC1)N1Cc2ccccc2C1=O (configuration not stated)
 : /, 1.25
O=C(Nc1c(-c2cccs2)nc2ccccn12)c1ccc2ccccc2c1
 : -1.52, 1.88
O=C1CN(Cc2cccc(F)c2)S(=O)(=O)c2ccccc2N1Cc1ccc(F)cc1
 : /, 1.03
O=C1c2cccnc2C(Nc2ccc(Br)cc2)N1C1CCCCC1 (configuration not stated)
 : -1.12, -0.9
O=C(c1ccncc1)N(c1cc2sc(=O)oc2c2ccccc12)S(=O)(=O)c1ccc(F)cc1
 : -2.03, 0.15
O=C(NCc1cccnc1)c1nn2c(C(F)(F)F)cc(-c3ccccc3)nc2c1Cl
 : -2.24, 0.64
CC1N=C(SCc2c(F)cccc2Cl)N2C(C)N=C(SCc3c(F)cccc3Cl)N12 (configuration not stated)
 : -0.88, /
COc1ccc(Nc2c(-c3ccc4c(c3)CCCC4)c(=O)c2=O)cc1Cl
 : /, 0.41

# 7 structures out of the list, ordered by length of the SMILES, lowest first.
# Results follow in this order: CDC25B CDK2 inh, HIV TAR-Tat
CCCc1cc(=O)[nH]c(SCc2ccccc2)n1
 : -3.93, 1.41
CC(C)CC(C(=O)N1CCCCC1)N1Cc2ccccc2C1=O (configuration not stated)
 : /, 1.25
O=C1c2cccnc2C(Nc2ccc(Br)cc2)N1C1CCCCC1 (configuration not stated)
 : -1.12, -0.9
COc1ccc(Nc2c(-c3ccc4c(c3)CCCC4)c(=O)c2=O)cc1Cl
 : /, 0.41
CC1N=C(SCc2c(F)cccc2Cl)N2C(C)N=C(SCc3c(F)cccc3Cl)N12 (configuration not stated)
 : -0.88, /
COc1ccc(N2C(=O)C3N=NN(CC(=O)Nc4ccc(OC)c(Cl)c4)C3C2=O)cc1 (configuration not stated)
 : -1.38, -0.04
O=C(N[C@@H]1C[C@H]2CC[C@@H]1C2)c1ccc(C2SCC(=O)N2CCc2ccccc2)cc1 (some centres not stated)
 : -2.33, 0.77

# Following part:
# Results follow in this order: CDC25B CDK2 inh, HIV TAR-Tat
COc1ccc2cc(S(=O)(=O)c3ccc(C(C)(C)C)cc3)c(=O)oc2c1
 : -0.09, /
O=C1CSC(c2cccc(NS(=O)(=O)c3cccc4nsnc34)c2)N1 (configuration not stated)
 : /, 1.09
Cc1ccc(NS(=O)(=O)c2ccc(-c3ccc(=O)[nH]n3)s2)c(C)c1
 : /, -0.12
Cc1ccc(-c2noc(CSc3nnc(-c4ccncc4)n3C)n2)cc1
 : -1.97, 0.76
O=C(CSc1ccccc1)OCc1cc(=O)n2nc(C3CC3)sc2n1
 : /, 0.43
Cn1cnnc1SCc1nc(-c2ccsc2)no1
 : -1.63, /
C=CCNc1ncnc2c1cnn2C
 : /, 0.54
CC1CCN(c2nc3c(c(=O)[nH]c(=O)n3C)n2CCSc2nc3ccccc3[nH]2)CC1
 : -2.39, /
Cc1ccc2oc(=O)c3cc(C(=O)Nc4ccc(Cl)cn4)sc3c2c1
 : -0.96, /
O=C(Cn1nc(C(F)(F)F)c2c1CCCC2)Nc1cccnc1Cl
 : 0.46, /
O=C(CC1Sc2ccccc2NC1=O)Nc1ccccc1C(F)(F)F (configuration not stated)
 : 0.55, /
Cc1c(C(=O)NCCCN2CCN(C)CC2)sc2nc3n(c(=O)c12)CCCCC3
 : /, 0.8
COC(=O)C1=C(C(=O)OC)C2(OC1c1ccc(Br)cc1)C(=O)c1ccccc1C2=O (configuration not stated)
 : 2.17, 0.39
O=C(Nc1c(C(=O)N(Cc2ccco2)CC2CCCO2)oc2ccccc12)c1cccs1 (configuration not stated)
 : /, 1.14
CCN(c1ccccc1)c1ncnc2c1cnn2-c1ccc(F)cc1
 : /, 1.55
CCCCNC(=O)Cn1cnc2onc(C)c2c1=O
 : /, 1.53
CCOc1ccc(C2C(C(=O)O)c3ccccc3C(=O)N2CCN2CCOCC2)cc1 (configuration not stated)
 : 0.64, /
CN(C)c1ccc(C(CNS(=O)(=O)c2ccc(F)cc2)N2CCc3ccccc32)cc1 (configuration not stated)
 : /, 1.37
Cc1cccc(CCNc2ncnc3onc(C)c23)c1
 : /, 1.12
O=C(Nc1ccc(Cl)cc1)C1CC2CCCN2C12C(=O)Nc1ccccc12 (configuration not stated)
 : /, -1.57
Cc1nc(-c2ccc(C)c(S(=O)(=O)Nc3c(C)cccc3C)c2)cs1
 : /, 2.98
COc1ccc(OC)c(NC(=O)C(=O)NCCc2ccccn2)c1
 : -2.85, /
Cc1ccc2onc(CNC(=O)NC3CC3)c2c1
 : /, 0.66
Cn1cnc(S(=O)(=O)N2CCCN(C(=O)OC(C)(C)C)CC2)c1
 : -3.13, /
Cc1ccc(S(=O)(=O)c2cn(C)c3cc(N4CCCC4)c(F)cc3c2=O)cc1
 : /, -0.03
COCCNc1oc2c(c1-c1ccccc1Cl)c(=O)oc1ccccc12
 : /, 0.85
CCOc1ccc2nc(Nc3nc(C)cc(=O)[nH]3)nc(C)c2c1
 : -1.88, /
CCOC(=O)C1=C(C)NC2=C(C(=O)CC(C)(C)C2)C1c1cc(Br)c(O)c(OC)c1 (configuration not stated)
 : -2.53, 0.68
Nc1cc(Cl)ccc1Nc1ccncc1
 : -1.47, /
COc1cc(C)c(S(=O)(=O)N2CCN(c3cc(N4CCCC4)nc(C)n3)CC2)cc1C
 : 0.29, -0.24
O=C(Oc1ccccc1N1CCOCC1)c1cccnc1Sc1ccc(Cl)cc1
 : -0.37, /
Cc1cc(Nc2ccccc2Cl)n2ncnc2n1
 : 2.89, /
Cc1nc(Nc2c(C)n(C)n(-c3ccccc3)c2=O)cc(-c2ccccc2)n1
 : 0.36, 0.96
CC(NS(C)(=O)=O)C(c1cccs1)N1CCN(C)CC1 (configuration not stated)
 : -0.21, /
CC1CCCC(C)N1C(=O)c1cc(S(=O)(=O)N2CCCC2)cn1C (configuration not stated)
 : /, 1.42
Cc1cc2oc3c(c(=O)c2cc1C)C(c1cccc(O)c1)N(c1ccccn1)C3=O (configuration not stated)
 : -0.62, -0.34
Cn1nc(Br)nc1Sc1ccccc1NC(=O)c1ccco1
 : /, 1.32
Cc1nc(-n2cccc2)sc1C(=O)NC1CCCCC1
 : -1.61, 1.44
COC(=O)c1c(C)oc(C)c1S(=O)(=O)N1CCC(O)(c2ccc(Cl)cc2)CC1
 : -0.75, /
O=C(NC1CCCC1)c1c(O)c2cccc3c2n(c1=O)CCC3
 : /, 1.34
Cc1cc(/N=C/N(C)C)on1
 : 0.96, /
Cc1c(C(=O)N2CCN(c3ccccn3)CC2)sc2ncnc(N3CCOCC3)c12
 : -1.05, /
O=C(O)c1ccc(Cn2c(SCc3ccccc3F)nc3ccncc32)cc1
 : -0.99, 0.61
COc1ccc(-c2nnc(SCc3cccc(Cl)c3)o2)c(OC)c1
 : 0.05, -0.51
Fc1ccc(N2CCN(c3ncnc4c3cnn4-c3ccc(F)cc3)CC2)cc1
 : /, 1.36
CCCn1cc(S(=O)(=O)c2ccc(Cl)cc2)c(=O)c2ccccc21
 : 0.01, 0.86
CCCC12CN3CC(CCC)(CN(C1)C3c1ccc(Br)cc1)C2=O (configuration not stated)
 : -1.35, /
CCc1ccc(C2CC(=O)NC(SCC(=O)OC)=C2C#N)cc1 (configuration not stated)
 : -0.59, -0.21
CC(C)NC(=O)c1sc2ncccc2c1-n1cccc1
 : /, -0.34
Cc1ccc(-n2c(=O)[nH]c3c(C(N)=O)nc(-c4ccc(Cl)cc4)nc32)cc1C
 : /, 0.28
Cn1c(C(=O)NC2CCCCC2)cc2cc(S(=O)(=O)N3CCCCC3)ccc21
 : /, 1.01
O=S(=O)(NC1Cc2ccccc2C1)c1cccc2nonc12
 : -2.39, /
Cc1ccc2ncc(C(=O)Nc3ccc(F)c(F)c3)c(=O)n2c1
 : -1.89, 0.09
Cc1[nH][nH]c(=O)c1C(c1ccc(C(C)C)cc1)c1c(C)[nH][nH]c1=O
 : -2.54, /
CC1CCCC(C)N1CCCNC(=O)CCC(=O)N1CCSc2ccccc21 (configuration not stated)
 : /, 0.08
COc1ccccc1OC(C)c1nc2ccccc2[nH]1 (configuration not stated)
 : -1.61, 1.95
Cc1cccc(Nc2ccc(-n3ccnc3)nn2)c1
 : -1.36, 2.08
O=C(CC1C(=O)N(c2ccccc2)C(=O)N1CCc1cccs1)Nc1ccc(F)cc1 (configuration not stated)
 : -0.02, /
Nc1cccc(-c2nc(-c3ccccc3)co2)c1
 : /, 1.59
Cc1cc(C(=O)Nc2ccc(F)cc2F)on1
 : -1.75, /

# Next structures follow:
# Results follow in this order: CDC25B CDK2 inh, HIV TAR-Tat
CCN1CCN(CCCNC(=O)c2c(C)oc3ncnc(N4CCOCC4)c23)CC1
 : /, 1.86
COc1ccccc1C1C2=C(CC(C)(C)CC2=O)Nc2n[nH]c(-c3ccccc3)c21 (configuration not stated)
 : /, 0.66
Cc1cc(C)c(OCC(O)CN2CCN(c3ccc(F)cc3)CC2)c(C)c1 (configuration not stated)
 : 0.05, /
Cc1ccc(C)c(NC(=O)N2CCCC2c2cccs2)c1 (configuration not stated)
 : -2.47, 1.54
COCCNS(=O)(=O)c1ccc2c(c1)CCCC(=O)N2
 : /, 1.52
c1ccc(OCCn2c(CN3CCOCC3)nc3ccccc32)cc1
 : -0.92, -0.49
CN1C(=O)Cc2cc(NS(=O)(=O)c3ccc(Br)cc3)ccc21
 : /, -0.07
Cc1ccc(CNc2nc3ccc(C)cc3n3cnnc23)cc1
 : -0.35, -0.12
CCc1nc2ccccc2n1CC(O)COc1ccc(C)cc1C (configuration not stated)
 : 0.74, 1.55
Cc1nc2ccc(S(=O)(=O)NC(CC(C)C)C(=O)NCc3ccccn3)cc2s1 (configuration not stated)
 : -1.6, /
CCOc1ccc(-n2nnnc2CNC(=O)NC(C)(C)C)cc1
 : /, 0.99
O=C(c1cnn(-c2ccc(F)cc2F)c1C1CCNCC1)N1CCN(c2ccccc2)CC1
 : /, 0.43
COc1ccc(S(=O)(=O)NCCSc2cc(C(F)(F)F)nc3ccccc23)cc1
 : -1, /
COc1cc(OC)c(C2=NN(C(C)=O)C(c3cccnc3)O2)cc1Br (configuration not stated)
 : /, 0.03
CC1CCCCC1NC(=O)c1csc2c1CCCCC2 (configuration not stated)
 : -3.21, -0.84
Cc1ccc(C)n1CCN1CCN(C(=O)c2cccc(C(F)(F)F)c2)CC1
 : -1.67, /
CCc1c(C)nc(N2CCOCC2)[nH]c1=O
 : -1.73, 0.64
O=C1CSC(=O)N1CC(O)Cn1c2ccc(Cl)cc2c2cc(Cl)ccc21 (configuration not stated)
 : -2.26, 0.34
CCOC(=O)c1c[nH]c2ccccc2c1=O
 : 0.3&-1.71, 1.58
COc1ccc(OCc2nn3c(Cn4cnc5ccccc54)nnc3s2)cc1
 : -0.33, 1.44
O=C1NC(=O)/C(=C/c2ccc3nccnc3c2)S1
 : -1.85, 3.25
COc1ccc(C2C(C(=O)c3cccs3)=C(O)C(=O)N2CCCN(C)C)cc1 (configuration not stated)
 : -1.7, 0.55
O=C(NCCCN1CCCCC1)C1CCCN(c2nnc(-n3cccc3)s2)C1 (configuration not stated)
 : -1.28, -0.85
COCCN(CCS(=O)(=O)N1CCNCC1)S(=O)(=O)c1ccccc1
 : /, 1.66
CCc1ccc(-c2cc(C)no2)cc1S(=O)(=O)N1CCCc2ccccc21
 : /, -0.76
CCOc1cc2c(cc1OCC)C(c1ccc(Br)cc1)OC(=O)C2 (configuration not stated)
 : -0.52, /
C=CCN(CC=C)S(=O)(=O)c1ccc(C(=O)Nc2nc3ccc(S(C)(=O)=O)cc3s2)cc1
 : 0.39, /
O=C(CSc1cn(CC(=O)N2CCCC2)c2ccccc12)Nc1cccc(F)c1
 : /, -5.69
O=C(c1noc2c1CCc1sccc1-2)N1CCN(Cc2ccc3c(c2)OCO3)CC1
 : /, 0.25
Cc1ccc(-c2ccc(=O)[nH]n2)cc1S(=O)(=O)N(C)C1CCCCC1
 : 0.46, 0.73
CS(=O)(=O)c1ccc(-c2cc(Br)sc2-c2ccc(F)cc2)cc1
 : /, 1.6
O=C(NCc1ccco1)c1c(NC(=O)c2nn(-c3ccc(Cl)cc3)ccc2=O)sc2c1CCC2
 : 0.67, 0.39
O=C1Nc2cc(Cl)ccc2OCC1CC(=O)N1CCCCC1 (configuration not stated)
 : /, 1.44
COc1ccc(S(=O)(=O)N(Cc2cc(CN3CCOCC3)cs2)c2ccc(Cl)cc2)cc1
 : /, -1.8
COC(=O)c1cnc(SCc2ccc([N+](=O)[O-])cc2)n1C
 : -1.2, /
